Bfl-1 A1 inh = inhibitors of the anti-apoptotic protein A1, read as caspase activation. MEF A1-2A-BIM cells, Caspase-Glo 3/7 luminescence, 3 h; percent of clofoctol response, vehicle zero. caspase activation, % (concentration not given with the values). actives 0.066% (n = 330,000). AID 2462;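 active = over half of replicate activation scores above 10%, or exactly half above 10 with the replicate mean above 10; inconclusive = replicate mean below 10 yet half the replicates above 10; inactive = over half of replicates below 10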;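 note: wells of about 30 µL received 50 nL stock; many hits fall short of the cut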
Beta2AR agonist = agonists of human beta-2 adrenergic receptor inducing internalization | response, % (concentration not given with the values) | AID 504454 | P07550 | actives 0.43% (n = 340,000) | Am2.2-beta2AR cells, FAP receptor internalization, flow cytometry; reference of the scale not given here;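 active = response above a set limit, near 3 SD of response in nonfluorescent compounds, cut at about 42% in these data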;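 note: stock transfer was 100 nL into about 11 µL; a reference agonist was the positive control; negative values mostly stem from fluorescent compounds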
Target sequence (P07550 whole entry, looked up): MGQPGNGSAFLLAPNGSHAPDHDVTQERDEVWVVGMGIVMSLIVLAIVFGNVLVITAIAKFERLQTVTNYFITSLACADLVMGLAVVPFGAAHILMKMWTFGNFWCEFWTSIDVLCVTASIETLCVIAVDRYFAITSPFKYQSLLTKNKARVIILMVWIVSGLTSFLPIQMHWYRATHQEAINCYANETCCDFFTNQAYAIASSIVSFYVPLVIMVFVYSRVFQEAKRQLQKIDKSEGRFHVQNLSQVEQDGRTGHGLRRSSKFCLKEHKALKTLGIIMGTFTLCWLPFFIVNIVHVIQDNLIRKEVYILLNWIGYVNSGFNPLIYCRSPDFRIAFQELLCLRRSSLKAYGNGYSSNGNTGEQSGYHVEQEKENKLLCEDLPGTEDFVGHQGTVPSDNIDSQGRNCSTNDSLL
LANA-H2A inh = blocks KSHV LANA binding to histone H2A/H2B. cell-free LANA-H2A/H2B peptide, fluorescence polarization. actives 0.6% (n = 320,000). inhibition, % (no concentration beside the values); in the data active = inhibition mostly above about 10%, no sharp cut-off; inactive = mostly below about 6.7%;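 note: stock transfer was 7.5 nL into about 10 µL; 0% = median of vehicle wells and 100% = median of positive control wells; one replicate is shown; the record names a cut of 25% in any replicate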
RanGTP-Imp inh = disruptors of Ran-importin-beta complex formation – biochemical, FRET, CFP-Ran, YFP-importin-beta, homogeneous, primary screen; cell-free CFP-Ran/YFP-importin-beta FRET ratio; inhibition, % (no concentration beside the values); actives 1.1% (n = 300,000); AID 2216;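 active = most replicates above 15%; inconclusive = exactly half above 15%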;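 note: 0% = DMSO wells and 100% = Ran loaded with GDP instead of GTP; wells of about 40 µL received 100 nL stock; the first replicate is given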
Calb FLC = C. albicans growth modulation with fluconazole. C. albicans CaCi-2 (fluconazole-resistant clinical isolate) + fluconazole, Alamar Blue growth, 48 h. growth inhibition, % (concentration not given with the values). actives 0.57% (n = 300,000). AID 1979;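 active = most replicates above 75%; inconclusive = exactly half above 75%; inactive = most below 75%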;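 note: all wells also contain fluconazole at 8 µg/ml as a sub-toxic cotreatment; 0% = median of DMSO wells and 100% = median of geldanamycin control wells; wells of about 8 µL received 7.5 nL stock; the first replicate is given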
UCH37 inh = human UCH37 deubiquitinating enzyme inhibition. purified proteasome/UCH37, Ub-AMC cleavage fluorescence. actives 0.33% (n = 330,000). Q9Y5K5. inhibition, % (test concentration not listed). AID 588478;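 active = mean of two replicates above 20%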;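 note: 0% = compound-free wells with enzyme and 100% = wells lacking proteasome; stock transfer was 100 nL into about 20 µL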
Target sequence (Q9Y5K5 whole entry, looked up): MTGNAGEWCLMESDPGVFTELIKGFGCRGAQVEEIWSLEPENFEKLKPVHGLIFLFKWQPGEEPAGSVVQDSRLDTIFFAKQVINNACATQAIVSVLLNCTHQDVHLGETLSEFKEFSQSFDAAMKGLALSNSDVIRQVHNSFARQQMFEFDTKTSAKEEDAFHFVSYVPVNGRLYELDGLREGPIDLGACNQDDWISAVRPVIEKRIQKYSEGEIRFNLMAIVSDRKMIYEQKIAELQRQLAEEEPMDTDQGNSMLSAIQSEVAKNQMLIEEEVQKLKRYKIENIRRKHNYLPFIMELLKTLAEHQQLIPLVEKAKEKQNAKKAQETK
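system = Proteasome-associated human UCH37 deubiquitinase | amount = 0.15 nM proteasome as dispensed | medium = pH 7.4 Tris-HCl (50 mM) with ovalbumin, ATP-MgCl2, DTT | incubation = 30 min preincubation with enzyme, 25 min cleavage at room temperature | detection = AMC fluorescence 355/460 nm | read-out basis = percent inhibition | controls = no-proteasome and no-compound wells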
T cruzi repl = T. cruzi replication inhibition; T. cruzi beta-gal in NIH3T3, luminescence, 90 h; inhibition, % (no concentration beside the values); actives 1.4% (n = 300,000);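 active = mean inhibition across valid replicates above about 55%, limit read from the data; inconclusive = mean below that limit but half or more replicates reach it; inactive = mean below it, under half of replicates reach it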;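 note: signal also drops with host cell toxicity which is not excluded here; 0% = plate median of DMSO wells and 100% = zero luminescence signal; higher percent means less beta-gal luminescence so fewer parasites; stock transfer was 50 nL into about 50 µL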
Beta apoptosis = beta cell apoptosis inhibition; AID 435005; actives 0.8% (n = 300,000); protection from apoptosis, % (test concentration not listed); INS-1E cytokine-induced death, ATP luminescence, 48 h; percent of positive-control rescue, neutral wells zero;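 active = all replicates at 75% or more, or half of them and the mean; inconclusive = half reach 75% but not the mean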;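 note: 0% = cytokine-treated negative control wells and 100% = positive control rescue; higher means more ATP so stronger rescue from cytokine killing; wells of about 40 µL received 100 nL stock; the first replicate is given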
* marks the source's active call; other numbers are inactive results; u = inconclusive; x = not tested or not shown. The order is random; about 4.3% have a hit in one of these screens.

cpd	SMILES	Bfl-1 A1 inh	Beta2AR agonist	LANA-H2A inh	RanGTP-Imp inh	Calb FLC	UCH37 inh	T cruzi repl	Beta apoptosis
1	COc1cc2ccccc2cc1C(=O)Nc1cccnc1	0.7	3	-6.1	0.9	0	-3.6	-11	-11
2	CCC(=O)N1CCN(c2ccc(NC(=O)c3ccc4c(c3)OCO4)cc2)CC1	0.0	0	0.6	-3.6	-10	3.6	7	x
3	CCNc1nnc(SCC(=O)c2c(N)n(C3CC3)c(=O)[nH]c2=O)s1	0.5	-5	-16	x	x	1.2	x	0
4	COc1ccc(CCN(C)CC(=O)Nc2ccc(F)c(Cl)c2)cc1OC	0.1	12	-1.9	-0.5	-19	0.5	25	-6
5	COc1cc2c(cc1OC)CN(C(=O)CCOc1ccccc1C)CC2	0.0	1	-8.0	7.2	6	1.6	8	-7
6	Cc1cccc(NC(=O)C2SC(=Nc3c(C)cccc3C)C(C(=O)N3CCOCC3)=C2N)c1 (stereo not given)	0.3	0	-0.7	5.0	16	5.4	22	-19
7	Cn1cc(/C=C2/SC(=O)N(c3ccccc3)C2=O)c2ccccc21	-1.8	-8	-2.0	1.2	-11	-2.1	-2	-8
8	COc1ccc(-c2cc(C(=O)N/N=C/c3cccnc3)c3ccccc3n2)c(OC)c1	0.8	-3	-2.6	3.7	48	x	-3	-1
9	Cc1cc(C(=O)O)c(CSCc2cc(C(=O)O)oc2C)o1	-0.5	-5	-5.8	0.9	35	0.7	6	-1
10	Cc1ccc2nc(SC(C)C(=O)NCc3ccc4c(c3)OCO4)[nH]c2c1 (stereo not given)	-0.1	-5	3.2	3.1	-54	0.0	-2	1
11	CC(C)Cn1nc(NS(=O)(=O)c2ccccc2)c2cc3ccccc3nc21	2.1	1	-0.3	0.2	-3	-37	-5	5
12	CC(=O)Oc1cccc(C(=O)Nc2ccccc2C(=O)N2CCCC2)c1	0.6	-2	-0.1	-1.8	4	2.8	-6	-3
13	CSc1ccccc1OCc1cc(C(=O)NC(C)Cn2cncn2)no1 (stereo not given)	0.8	-11	-2.3	4.0	1	1.0	5	-4
14	COc1ccc(C(CNC(=O)c2cccc(S(=O)(=O)NCc3ccccc3)c2)N(C)C)cc1 (stereo not given)	2.0	0	-2.2	-0.6	-1	2.5	7	-2
15	CC(C)c1onc(C(=O)N2CCN(Cc3ccccc3)CC2)c1[N+](=O)[O-]	1.3	1	0.5	4.9	17	-0.4	-3	-4
16	COc1ccc(OC)c(CCNC(=O)Cn2nc(C)c3c(C)n(-c4ccc(C)cc4)nc3c2=O)c1	1.3	-2	1.2	-2.0	6	3.8	-1	17
17	COC(=O)c1ccc(NC(=O)CSCc2ccc(C)cc2)cc1	-0.1	-3	-5.1	2.4	24	0.1	2	-2
18	COc1cc2c(C#CCCCO)c(-c3ccc(C#N)cc3)oc(=O)c2cc1OC	0.3	-2	0.3	x	x	-10	x	0
19	C[C@@]12C(=O)N(CCO)CC(=O)N1[C@H](/C=C/c1ccccc1)[C@@H]1C(=O)N(c3ccccc3)C(=O)[C@@H]12	-0.4	0	2.0	-3.9	-4	0.9	-9	3
20	N#C/C(=C\c1ccccc1[N+](=O)[O-])C(=O)NC1CCCCC1	-0.8	6	3.7	-3.6	4	5.5	-3	-8
21	Cc1cc(N2CCC(C)CC2)nc(-c2ccccc2O)n1	0.1	19	-1.3	2.5	7	-40	4	9
22	COc1cccc(-c2nc3ccc(C(=O)NC(C)Cc4cccnc4)cc3o2)c1 (stereo not given)	-0.3	3	5.2	-3.8	-7	-16	9	-10
23	CCCCN(C(=O)CSCC(=O)Nc1ccc(C)cc1)c1c(N)n(CCCC)c(=O)[nH]c1=O	1.1	3	-19	0.0	-3	0.4	5	3
24	COc1ccc(NCc2nnc(SCC(=O)NCc3ccccc3)n2-c2ccccc2OC)cc1	0.4	-3	0.1	-2.5	-4	-5.2	2	9
25	COc1ccc(CC(=O)N/N=C/c2ccc(-c3ccc(F)cc3)o2)cc1OC	0.3	-4	2.8	2.6	4	x	22	-2
26	NC(=O)C1CCN(C(=O)c2ccco2)CC1	0.0	0	4.5	0.3	-20	0.0	-3	x
27	COc1ccc2c(c1)C1=NN(/C(C)=C/C(C)=O)C(c3ccc(F)cc3)C1CC2 (stereo not given)	-1.0	4	1.3	1.1	5	0.2	-11	-7
28	CS(=O)(=O)N(Cc1ccc(Cl)cc1)c1ccc(C(=O)NCC2CCCO2)cc1 (stereo not given)	2.5	-2	3.3	-1.5	-1	4.7	-1	-5
29	CSCCC(NC(=O)c1ccc(C)o1)C(=O)O (stereo not given)	0.5	0	5.5	1.6	4	3.0	-5	-1
30	CC(OC(=O)c1cc(S(=O)(=O)N2CCOCC2)ccc1F)C(=O)NC1CCCCC1C (stereo not given)	-0.4	1	1.0	3.2	14	0.3	5	-2
31	Cc1ccc(C(=O)c2no[n+]([O-])c2C(=O)c2ccc(C)cc2)cc1	1.7	42*	0.2	u	2	4.0	12	4
32	COc1ccc(NS(=O)(=O)c2csc(C(N)=O)c2)cc1	-0.4	-6	4.3	-2.8	-11	0.3	-7	-7
33	COc1ccc(Cn2nnnc2C(c2cccnc2)N2CCN(c3ccc(O)cc3)CC2)cc1 (stereo not given)	-0.3	-5	1.4	-1.8	-19	-0.1	48	-2
34	Cc1c(C(=O)Nc2ccc(S(=O)(=O)NCC3CCCO3)cc2)cccc1[N+](=O)[O-] (stereo not given)	0.9	10	8.5	7.7	-2	1.2	-10	-2
35	O=C(C1CCCN(S(=O)(=O)c2cccnc2)C1)N1CCN(c2ccccn2)CC1 (stereo not given)	-1.6	-9	4.5	-0.1	8	-2.2	-21	2
36	CCOC(OCC)c1ccc(/C=C\c2nccc(N)n2)cc1	-1.1	-1	-1.2	-2.5	-3	-258	1	2
37	OC(c1ccccc1)(c1ccccc1)c1ccn[nH]1	-0.7	-2	10.0	5.5	0	-0.4	3	-6
38	COc1ccccc1NC(=O)Cn1nc(Cc2cccnc2)c2ccccc2c1=O	1.3	-5	-1.7	1.3	8	4.5	3	-7
39	O=S(=O)(NCc1ccccn1)c1ccc(Cl)c(C(F)(F)F)c1	0.4	2	1.5	u	10	2.4	-17	-8
40	CC(=O)Nc1ccc(NC(=O)C(C)O/N=C/c2cccc([N+](=O)[O-])c2)cc1 (stereo not given)	-0.2	-7	1.9	u	2	x	14	-2
41	Cc1noc(C)c1C(=O)Nc1ccc(F)cc1	-0.2	6	3.0	1.4	-10	0.8	-15	-3
42	COc1cccc(N2CCN(C(=O)c3oc4ccccc4c3NC(=O)CCc3cc(OC)no3)CC2)c1	0.8	-2	1.2	21	-6	3.2	2	-2
43	O=S(=O)(c1ccc2c(c1)nc(COc1ccc(Cl)cc1)n2CC1CCCO1)N1CCOCC1 (stereo not given)	0.5	-3	-1.4	2.1	9	1.3	51	-3
44	CC(=O)Nc1ccc(S(=O)(=O)N[C@@H](C)C(=O)OCC(=O)c2ccc[nH]2)cc1	-1.1	-4	4.1	x	x	-2.9	x	3
45	C[C@H](NC(=O)C1CC(=O)N(c2ccc3c(c2)OCO3)C1)C(=O)NCc1ccco1 (stereo not given in full)	-0.2	6	-0.6	3.4	6	-0.8	-10	2
46	Cc1c(Cl)cccc1NC(=O)NCc1ccc(C)n1C	0.7	-1	0.0	u	-4	6.2	-17	-7
47	Cc1[nH]c(=S)n(CC2CCCO2)c1C (stereo not given)	1.0	0	2.3	0.2	-2	-0.9	-8	8
48	CC(Sc1ccccc1F)C(=O)Nc1ccc2c(c1)OCCO2 (stereo not given)	-1.3	-4	-1.3	x	x	4.2	x	1
49	Cc1cc(C)n(CCCNC(=O)C2CCC(=O)N(CCc3ccc(Cl)cc3)C2)n1 (stereo not given)	0.0	4	-4.7	5.1	-5	-2.4	-13	2
50	COC(=O)c1c(C)oc(C)c1S(=O)(=O)NCc1ccc(Cl)cc1Cl	1.2	5	-3.9	-2.0	3	1.1	3	0

In a second layout: 3 of the compounds above.
Every second line gives: Bfl-1 A1 inh	Beta2AR agonist	LANA-H2A inh	RanGTP-Imp inh	Calb FLC	UCH37 inh	T cruzi repl	Beta apoptosis
(46) Cc1c(Cl)cccc1NC(=O)NCc1ccc(C)n1C
→ 0.7	-1	0.0	u	-4	6.2	-17	-7
(50) COC(=O)c1c(C)oc(C)c1S(=O)(=O)NCc1ccc(Cl)cc1Cl
→ 1.2	5	-3.9	-2.0	3	1.1	3	0
(41) Cc1noc(C)c1C(=O)Nc1ccc(F)cc1
→ -0.2	6	3.0	1.4	-10	0.8	-15	-3

Quoted from the listing:
UCH37 inh result of entry 41 stands at 0.8
Bfl-1 A1 inh result of entry 47 stands at 1.0
RanGTP-Imp inh result of entry 50 stands at -2.0

More records.
cpd	SMILES	Bfl-1 A1 inh	Beta2AR agonist	LANA-H2A inh	RanGTP-Imp inh	Calb FLC	UCH37 inh	T cruzi repl	Beta apoptosis
51	COc1ccc(CCNC(=O)c2ccc(OCc3c(C)noc3C)cc2)cc1OC	-0.2	0	0.5	x	x	1.4	x	3
52	CCOC(=O)CN1C(=O)CCSc2ccc(Cl)cc21	1.0	5	1.6	-0.4	-19	1.4	-16	-6
53	CC(C)c1ccc(OCC(=O)NNC(=O)c2cnccn2)cc1	0.9	4	-0.9	4.0	0	10	-13	-1
54	Cc1ccc(-n2[nH]c(C)c(C=Nc3ccc(Br)cn3)c2=O)cc1	-1.9	-8	1.5	0.2	-15	3.2	-2	7
55	CCC(C)NC(=O)C1CCC(=O)N(c2ccc3c(c2)OCO3)C1c1ccc(OC)cc1 (stereo not given)	0.2	1	-0.8	-3.1	1	8.9	0	-1
56	COc1ccccc1OCCNC(=O)c1ccc2c(c1)OCCO2	-0.6	-7	5.6	1.5	10	0.6	8	-7

Screening results deposited in PubChem BioAssay by several laboratories.
